# VACV mCherry inh: vaccinia inhibition (mCherry reporter). Vaccinia virus mCherry reporter infection, fluorescence; about a quarter of the inactives have no number. Potency, µM (highest dose often 36.5 µM), for inactives: at the highest dose activity change, negative = inhibition, actives largely listed as inhibitors. 0.63% of 310,000 active. AID 720579; active = well fitted inhibition curve with a large enough effect; inconclusive = small, poorly fitted or top-dose-only effect; inactive = no such curve, though single readings can be large or run the other way; tested in A549 cells; also: nearly all actives have a fitted effect of over 35% in size; inactives centre near -10
# Vaccinia Venus: inhibitors of vaccinia virus (Venus reporter); Vaccinia virus Venus reporter expression, fluorescence; Potency, µM (highest dose often 36.5 µM), without a hit: at the top dose activity change, negative = inhibition, usual class: inhibitors; 0.46% of 330,000 active; AID 720580; active means well fitted inhibition curve with a large enough effect; inconclusive means small, poorly fitted or top-dose-only effect; inactive means no such curve, though single readings can be large or run the other way; tested in A549 cells; also: nearly all actives have a fitted effect of over 30% in size; inactives centre near -10
# Active calls of the source: *; i = inactive; ? = inconclusive; / = no result given; [ ] = another dose, or the depositor's remark. % is scaled to controls: 0 for no effect and ±100 for the full control effect; potency is read from the fitted curve at half-maximal effect.
# The first six records, to show the layout:
# The line under a structure holds: VACV mCherry inh, Vaccinia Venus
> CCN1CCN(CCNC(=O)CSCc2nc(-c3ccc(OC)c(OC)c3)oc2C)CC1
    -13%, 0%
> COc1ccc(CNC(=O)C(C)OC(=O)c2cccn2C)cc1 (centres undefined)
    -13%, -9%
> O=C1CCC([N+](=O)[O-])C(c2cc3c(cc2Br)OCO3)N1 (centres undefined)
    -10%, -12%
> Cc1ccccc1-c1cc(-c2ccccc2O)on1
    i, -8%
> CC1CCCC(C)N1CCCNC(=O)Cn1c(=O)c2cccn2c2cccnc21 (centres undefined)
    -8%, -5%
> Cc1ccc(-c2noc(CN(C(=O)c3cccc(Br)c3)C(C)C)n2)cc1
    -2%, -21%

# All compounds of this part, from the start:
# The line under a structure holds: VACV mCherry inh, Vaccinia Venus
> CCN1CCN(CCNC(=O)CSCc2nc(-c3ccc(OC)c(OC)c3)oc2C)CC1
    -13%, 0%
> COc1ccc(CNC(=O)C(C)OC(=O)c2cccn2C)cc1 (centres undefined)
    -13%, -9%
> O=C1CCC([N+](=O)[O-])C(c2cc3c(cc2Br)OCO3)N1 (centres undefined)
    -10%, -12%
> Cc1ccccc1-c1cc(-c2ccccc2O)on1
    i, -8%
> CC1CCCC(C)N1CCCNC(=O)Cn1c(=O)c2cccn2c2cccnc21 (centres undefined)
    -8%, -5%
> Cc1ccc(-c2noc(CN(C(=O)c3cccc(Br)c3)C(C)C)n2)cc1
    -2%, -21%
> CC(OC(=O)c1cccc(-n2cnnn2)c1)C(=O)Nc1ccc(F)c(F)c1F (centres undefined)
    -14%, -6%
> O=C(C(=O)N(C1CCCCC1)C1CCCCC1)c1ccccc1
    ?, -29%
> CC(=O)Nc1c(O)nc(SCc2ccc(Cl)cc2)[nH]c1=O
    i, -14%
> Cc1ccc(NC(=O)Cc2coc3ccc(C(C)C)cc23)c(C)c1
    2%, -2%
> Cc1ccc(CNC(=O)Cc2c(C(=O)O)c(C)cn2C)cc1
    -9%, 1%
> CCOc1ccc(C(=O)OCC(=O)N2CC(C)OC(C)C2)cc1OCC (centres undefined)
    i, 13%
> COc1ccc(/C=N/NC(=O)c2cc(-c3ccccc3OC(C)C)nc3ccccc23)cc1CN1CCOCC1
    i, 1%
> N#C/C(=C\c1ccc(-c2ccc(Br)cc2)o1)C(=O)NCCc1c[nH]c2ccccc12
    ?, -12%
> COc1cccc(C(=O)N(Cc2ccc(N(C)C)cc2)Cc2ccco2)c1
    -15%, -7%
> COc1ccc(C#Cc2cccc(-c3nc(C(=O)NCCCN4CCOCC4)cc4c3[C@H](CCO)N(S(=O)C(C)(C)C)C4)c2)cc1OC (some centres undefined)
    i, -9%
> CS(=O)(=O)c1ccc(Cl)c(NC(=O)COC(=O)c2cccc(S(=O)(=O)N3CCCCC3)c2)c1
    i, -9%
> O=C(Cc1ccccc1)N/N=C/c1cc2c(cc1Cl)OCO2
    -7%, -18%
> COc1ccccc1N1CCN(CCCNC(=O)c2cnn(-c3ccccc3)c2C2CCN(C(=O)OC(C)(C)C)CC2)CC1
    -26%, -27%
> COc1ccc(NC(=O)c2ccc(OCC3CCCO3)cc2)cc1Cl (centres undefined)
    -5%, -27%
> O=C(Nc1nc2ccc(F)cc2s1)C1CCN(S(=O)(=O)c2cc([N+](=O)[O-])ccc2Cl)CC1
    ?, ?
> C=CCn1cc(/C=N/Nc2nc3ccccc3[nH]2)c2ccccc21
    -26%, ?
> Cc1ccccc1Nc1c(-c2c(F)cccc2Cl)nc2ccc(Br)cn12
    -24%, -21%
> Cc1c(CCOC(=O)c2ccccc2)sc[n+]1CC(=O)c1ccc(Br)cc1
    -21%, -12%
> CNC(=O)C1(C)CCN1C(=O)Cc1ccc(C(C)C)cc1 (centres undefined)
    -22%, ?
> Cc1ccc2c(cnn2C(=O)CCCC(=O)NC(C)c2ccccc2)c1 (centres undefined)
    -2%, 9%
> CN(Cc1ccco1)C(=O)[C@H](Cc1ccccc1)NC(=O)CC[C@H]1O[C@@H](n2ccc(=O)[nH]c2=O)[C@H](O)[C@@H]1O
    34%[activator], 0%
> CC(=O)N1N=C(c2ccc3nccnc3c2)CC1c1ccccc1 (centres undefined)
    i, -8%
> CC(C)Cc1ccc(C2=CSC3=NCCN23)cc1
    -16%[7.34 µM], -8%[7.34 µM]
> Cc1ccc(-c2nc3c(c(=O)[nH]c(=O)n3Cc3ccccc3)n2Cc2ccccc2)o1
    -23%, -6%
> COc1ccc(CNC(=O)CC2Sc3ccccc3NC2=O)cc1 (centres undefined)
    i, -25%
> O=C(NCCOc1ccc(Cl)cc1)C(=O)NCC1CCCO1 (centres undefined)
    -15%, -10%
> COCc1ccc(C(=O)N2CCCCC2C(=O)Nc2ccc(-n3nc(C)cc3C)cc2)o1 (centres undefined)
    -9%, -16%
> COC(=O)C1CCN(CC(=O)Nc2sc3c(c2C#N)CCC3)CC1
    /, -6%
> CC1CN(C(=O)c2ccccc2Nc2ccc(SC(F)F)cc2)CC(C)O1 (centres undefined)
    -17%, -4%
> CCN(CCn1cccn1)C(=O)c1cc(COc2cccc3cccnc23)on1
    i, -4%
> O=C(O)c1ccc(Cl)c(S(=O)(=O)N2CCCCCC2)c1
    -8%, 6%
> COc1ccc(Cl)cc1C(=O)OCC(=O)c1c(N)n(C)c(=O)n(C)c1=O
    -10%, -9%
> O=C(Cn1cnc2c(nnn2Cc2ccc(F)cc2)c1=O)N1CCCc2ccccc21
    -17%, -11%
> COc1ccc(-c2cn3nc(N4CCC(C(=O)Nc5ccc(Cl)cc5C)CC4)sc3n2)cc1
    -14%, -12%
> Cc1ccc2nc(-c3ccc(NC(=O)Cc4ccccc4)cc3)sc2c1
    -15%, -13%
> COc1cc2nc(N3CCN(C)CC3)nc(NC3CCN(C)CC3)c2cc1OC
    -15%, -30%
> CC1C(c2ccccc2)N(C)C(c2ccccc2)CC1(O)c1ccc(F)cc1 (centres undefined)
    -5%, 1%
> CC1(C)CN(c2cccc(C#N)c2)C1=O
    i, -1%
> Cc1ccc(Cc2nc3ccccc3nc2SCC(=O)NCc2ccc(F)cc2)cc1
    -6%, -3%
> CCOc1ccc(NCc2cccn2-c2nnc(N3CCC(C(=O)NCCCN4CC(C)CC(C)C4)CC3)s2)cc1 (centres undefined)
    ?, ?
> COc1ccc(CC(=O)N2CCN=C2SC)cc1OC
    -6%, -8%
> CS/C(N)=N/N=C/c1cc(C)ccc1O
    ?, -21%
> Fc1nc(N2CCCC2)c(F)c(Oc2ccccc2Oc2c(F)c(F)nc(N3CCCC3)c2F)c1F
    6%, 9%
> CN1CCN(CCNC(=O)c2cc3c(=O)n(C)c4ccccc4c3n2C)CC1
    -6%, 1%
> CC(=O)Nc1ccc(S(=O)(=O)N(C)CC(=O)OC(C)C(=O)N(C)Cc2ccccc2)cc1 (centres undefined)
    i, -11%
> COc1cccc(N2CCN(c3ncnc4c3[nH]c3ccc(F)cc34)CC2C)c1 (centres undefined)
    /, 7.1µM*
> COCCn1c(CCC(=O)Nc2cc(C)ccc2C)nc2cccnc21
    -10%, -5%
> CC(C)(C)OC(=O)C[C@@H]1C/C=C\C[C@H](CC(=O)N[C@H](CO)Cc2ccccc2)C(=O)N[C@@H](Cc2c[nH]c3ccccc23)COC1=O
    -7%, -14%
> O=C(CCCc1ccccc1)c1ccc2c(c1)OCCO2
    -15%, -1%
> CCN(CC)c1ccc(CNC(=O)C/C(C)=N/NC(=O)COc2ccc(C)cc2Br)cc1
    -16%, 1%
> COc1ccc(-n2c(-c3cccc(OC)c3)nc(=S)c3c2CCCC3)cc1
    -12%, -15%
> CCCCc1c(-c2ccccc2OC)ncn1Cc1cccc(-c2ccccc2)c1
    -21%, ?
> Nc1oc2ccccc2c1C(=O)Cc1ccccc1O[C@@H]1O[C@H](CO)[C@@H](O)[C@H](O)[C@H]1O
    i, -17%
> Cc1ccc2c(c1)NP(=S)(Oc1ccccc1)N2 (centres undefined)
    -12%, -17%

# The listing continues.
Molecule | VACV mCherry inh | Vaccinia Venus
COc1ccc(-c2csc3ncnc(N4CCN(CCO)CC4)c23)cc1 | -9% | -8%
CCCn1c(C2CCCN2c2nc(-c3ccc(C)cc3)cs2)nc2cc(Cl)c(N3CCCCC3)cc21 (centres undefined) | -18% | -12%
Cc1ccc(C(=O)CSc2nnc(CNc3nc(-c4ccccc4)cs3)n2C)cc1 | ? | -27%
CCOC(=O)C1CCN(c2ncnc3c(C)csc23)CC1 | i | -10%
CCOc1ccccc1NC(=O)Cn1c(=O)n(Cc2nc(C)no2)c(=O)c2ccccc21 | 0% | -11%
COc1ccc(CCNC(=O)C(=O)NCc2ccc(Cl)cc2)cc1OC | -15% | -13%
O=C(NCc1ccccc1)C(c1ccccc1F)n1c(=O)c(-c2ccco2)nc2ccccc21 (centres undefined) | -4% | -3%
CCC(C)Sc1ccc([C@H]2N[C@@](CC(C)C)(C(=O)OC)[C@H]3C(=O)N(C)C(=O)[C@@H]23)cc1 (some centres undefined) | -27% | -12%
CC(=O)Nc1ccc(C(=O)N2CCCC(c3cc(C(=O)NCc4ccc(F)cc4)no3)C2)cc1 (centres undefined) | 9% | 2%
CCOc1ccc(C(=O)N/N=C(\c2ccccc2)c2ccccn2)cc1 | 11µM* | ?
Cc1ccn2c(CNCCn3nc(C)cc3C)c(C(=O)N3CCCCCC3)nc2c1 | -2% | -1%
O=C(O)CSc1ncnc2sc(-c3ccccc3)cc12 | -7% | -9%
C[C@@H]1CCCCO[C@H](CN(C)Cc2ccc(C(=O)O)cc2)[C@H](C)CN([C@@H](C)CO)C(=O)c2cc(NC(=O)Nc3ccc(C(F)(F)F)cc3)ccc2O1 | 3% | -10%
O=C(NCc1ccc(Cl)cc1)c1ccc(Cn2c(=O)c3cccn3c3cccnc32)cc1 | -12% | -17%
O=C(O)CC1SC(=Nc2ccc(O)cc2)NC1=O (centres undefined) | i | -3%
Cc1ccc(Cl)cc1NC(=O)CSC(N)=O | -9% | 8%
COc1ccc(NS(=O)(=O)c2cccc(C(=O)N3CCN(C/C=C/c4ccccc4)CC3)c2)cc1 | -21% | ?
CCn1c(C(C)NC(C)=O)nc2ccccc21 (centres undefined) | i | -5%
O=c1[nH]c(C2CCN(S(=O)(=O)c3ccccc3)CC2)nc2c1nnn2Cc1c(F)cccc1Cl | ? | -16%
O=C(Nc1ccc(OC(=O)c2ccncc2)cc1)c1ccncc1 | -13% | -4%
COC(=O)c1c(NC(=O)c2nc(SCc3ccccc3C)ncc2Cl)sc2c1CCCC2 | -5% | -3%
CN(CC(=O)Nc1cccc(F)c1)C(=O)CCCn1c(=O)oc2ccccc21 | -25% | -1%
COc1ccc(-c2cn3cccnc3n2)cc1NC(=O)C(C)Oc1ccccc1 (centres undefined) | ? | -16%
O=C(CSc1nnc(CNC(=O)c2cccs2)o1)NC1CCCCC1 | i | ?
CC(C)N(C(=O)CSc1nnc(C2CC2)n1C1CC1)c1ccccc1 | -6% | -1%

# Quoted at random: two compounds from above.
Molecule | VACV mCherry inh | Vaccinia Venus
Cc1ccn2c(CNCCn3nc(C)cc3C)c(C(=O)N3CCCCCC3)nc2c1 | -2% | -1%
CCn1c(C(C)NC(C)=O)nc2ccccc21 (centres undefined) | i | -5%

# Single entries from the results shown.
# `O=c1[nH]c(C2CCN(S(=O)(=O)c3ccccc3)CC2)nc2c1nnn2Cc1c(F)cccc1Cl` – Vaccinia Venus: -16%
# `CN(CC(=O)Nc1cccc(F)c1)C(=O)CCCn1c(=O)oc2ccccc21` – VACV mCherry inh: -25%

# Following part:
Molecule | VACV mCherry inh | Vaccinia Venus
CC(C)(C)c1ccc(OCC(=O)N(Cc2cccs2)C2CCS(=O)(=O)C2)cc1 (centres undefined) | -12% | -25%
O=C(NC1CCCCCC1)c1cc(=O)[nH]c2ccc(S(=O)(=O)N3CCOCC3)cc12 | -15% | -15%
COc1ccc(-n2c(SCC(=O)Nc3ccc([N+](=O)[O-])cc3OC)nc3ccccc32)cc1 | i | 5%
CC(=O)N1CCC[C@H]1C(=O)NCC1Cc2cc(-c3cnccn3)cc(Cl)c2O1 (some centres undefined) | -10% | 2%
CCOCCc1nnc(NC(=O)Cc2ccccc2)s1 | -10% | 2%
Cc1cccc(NC(=S)N2CCCN(c3ncccc3[N+](=O)[O-])CC2)c1 | i | -9%
COc1ccc(/C=N/NC(=O)c2ccc(Cl)c(S(N)(=O)=O)c2)cc1OCC(N)=O | 2% | -9%
O=C(c1ccco1)N1CCN(S(=O)(=O)c2cccs2)CC1 | -17% | -7%
CNC(=O)NC(=O)COc1ccc2oc3c(c2c1)CCCC3 | -6% | -10%
CCOc1ccc(CCNC(=O)COC(=O)c2cccc(S(=O)(=O)N3CCCCC3)c2)cc1OCC | -14% | -7%
O=C(Nc1ccccc1N1CCOCC1)c1ccc2ccccc2n1 | i | -22%
Cc1ccc(C)c(Nc2nnc(-c3ccc(C)c(S(=O)(=O)NCC4CCCO4)c3)c3ccccc23)c1 (centres undefined) | -12% | -14%
Fc1ccc(-c2nnc3ccc(N4CCc5ccccc5C4)nn23)cc1 | ? | ?
Cc1ccc(OCC(=O)Nc2ccc(-c3nnc(-c4ccco4)o3)cc2)cc1 | -25% | -16%
Cc1cccc(-c2nc(C)c(CCNC(=O)c3cccs3)s2)c1 | 7% | -2%
CC1CN(Cc2ccccc2)C(=S)NC1=O (centres undefined) | -13% | -5%
NNC(=O)c1nnn(-c2nonc2N)c1CN1CCc2ccccc2C1 | ? | -12%
C=CCNC(=O)CC(=O)N/N=C/c1ccc(C(=O)OC)cc1 | / | ?

# High-throughput results from PubChem.
